HSV augment – HSV replication enhancement; HSV replication augmentation in cells, fold increase; maximum fold increase; 0.005% of 220,000 active; AID 1956;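 active = peak rise of 1.5-fold or more in the series; tested in PC3 cells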;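 also: first round at 10 µM; read as green reporter fluorescence; hits show the peak of a series up to 25 µM; 1 = signal of infected wells without compound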
RGS16-Gao – regulators of human RGS16-Galphao interaction. bead-based flow cytometry RGS16-Galphao binding, fluorescence; actives lie on both sides. binding response (% of control), % at 10 µM. 0.38% of 220,000 active. AID 1441;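 active = below 25% or above 175%, edge rows of some plates excepted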;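 also: Galphao activated by GDP with aluminum fluoride before binding; 100% = wells without compound and 0% = beads without RGS; some results beyond the cut were filed as inactive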
Target sequence (O15492 whole entry, looked up): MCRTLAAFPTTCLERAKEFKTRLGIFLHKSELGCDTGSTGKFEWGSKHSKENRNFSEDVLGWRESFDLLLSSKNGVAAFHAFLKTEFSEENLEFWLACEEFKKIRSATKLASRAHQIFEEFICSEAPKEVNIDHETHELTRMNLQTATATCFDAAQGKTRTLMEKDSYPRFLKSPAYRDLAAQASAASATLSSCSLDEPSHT
Target sequence (P09471 whole entry, looked up): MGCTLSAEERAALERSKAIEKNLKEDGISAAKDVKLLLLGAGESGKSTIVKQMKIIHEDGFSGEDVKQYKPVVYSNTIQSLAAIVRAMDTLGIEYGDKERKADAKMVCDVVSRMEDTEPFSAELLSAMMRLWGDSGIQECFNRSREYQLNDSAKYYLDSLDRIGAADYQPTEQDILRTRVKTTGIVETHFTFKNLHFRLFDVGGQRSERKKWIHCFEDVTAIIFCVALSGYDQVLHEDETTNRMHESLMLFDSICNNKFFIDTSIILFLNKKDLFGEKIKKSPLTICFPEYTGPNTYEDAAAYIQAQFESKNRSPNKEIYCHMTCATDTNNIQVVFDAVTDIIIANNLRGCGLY
HSV augment primary fold – second read-out of HSV augment, no call of its own (marks repeat the call); fold increase; compound at 10 µM; measured here: primary screen fold increase 10 uM; tested in PC3 cells;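 GFP signal in the first replicate; 1 = infected wells without compound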
Starred values were filed as active, the others as inactive; i = inactive; x = no result given.

SMILES	HSV augment	HSV augment primary fold	RGS16-Gao
Cc1ccc(S(=O)(=O)N2CCC(C(=O)N[C@@H](C)C(=O)NCCc3ccccc3)CC2)cc1	x	x	105.5
COc1ccccc1-n1nnnc1S(=O)(=O)Cc1ccc(Cl)cc1	x	x	102.2
CCCCCCN(C(=O)CCCCCN1C(=O)NC(c2ccc([N+](=O)[O-])cc2)C(C(=O)OCc2ccccc2)=C1C)C(C(=O)NCCCC)c1ccc(OCC(=O)OC)c(C(=O)OC)c1 (stereo unspecified)	x	x	97.7
CCN(CC)CCCC(C)Nc1c2ccc(Cl)cc2nc2ccc(OC)cc12 (stereo unspecified)	x	x	101.7
N#C/C(=C\c1ccc(N2CCOCC2)o1)C(=O)NC1CCCCC1	x	x	96.6
N#C/C(=C(/O)c1ccc([N+](=O)[O-])o1)c1nc2ccccc2[nH]1	x	x	95.9
CCN(CC)Cc1c(O)ccc2c1O/C(=C\C=C\c1ccccc1)C2=O	x	x	109.4
CCOC(=O)C1=C(N)Oc2c(oc(CO)cc2=O)C1c1ccc(Cl)cc1 (stereo unspecified)	x	x	107.6
O=c1c(O[C@@H]2O[C@H](CO)[C@H](O)[C@H](O)[C@H]2O)c(-c2ccc(O)c(O)c2)oc2cc(O)cc(O)c12	x	x	86.7
Cc1ccc(N2C(=O)c3cccc4c([N+](=O)[O-])ccc(c34)C2=O)c2cccnc12	x	x	100.7
CCN1C(=O)/C(=C/C=C2\N(CC)c3cc(S(=O)(=O)N(C)C)ccc3N2c2ccccc2)SC1=S	x	x	107.8
O=C(N/N=C/c1sc(N2CCOCC2)nc1-c1ccccc1)c1cccc(S(=O)(=O)N2CCOCC2)c1	x	x	103.4
Cc1cc(/C=C2\SC(=S)N(C)C2=O)c(C)n1-c1ccc(O)cc1	x	x	109.6
CN1CCN(c2c(F)cc3c(=O)c(C(=O)O)cn(CCF)c3c2F)CC1	x	x	94.7
O=C1c2cccc3c([N+](=O)[O-])ccc(c23)C(=O)N1CCc1ccccn1	x	x	96.3
O=C1CC(c2ccc(O)cc2)Oc2cc(O)ccc21 (stereo unspecified)	i	1.05	x
C1=C(c2ccccc2)Nc2ncnn2C1c1ccccc1 (stereo unspecified)	i	0.96	x
CC1(O)C(=O)C=C2C=C(c3ccc(C#N)cc3)OC=C2C1=O (stereo unspecified)	i	0.7	x
C=CC[C@]12CC=CC(=O)[C@@]1(O)O[C@H](c1ccc(OC)c(OC)c1)[C@H]2C	i	0.62	x
COc1ccc(-c2nc3c(s2)CCc2onc(-c4ccc(Br)cc4)c2-3)cc1	i	0.69	x
CCCCC1=CC2=CC(=O)C(C)(OC(=O)CCC(=O)OC)C(=O)C2=CO1 (stereo unspecified)	i	1.1	x
O=C1CC2(CCCCCC2)Oc2ccccc21	i	1.25	x
CCOc1ccccc1-c1cc(-c2ccc(OC)cc2)nc2c1c(=O)n(C)c(=O)n2C	i	0.95	x
COC(=O)c1cc(S(=O)(=O)n2nc(C)cc2C)c(Cl)cc1Cl	i	0.8	x
Cc1c(N=Cc2cc3c(cc2Cl)OCO3)c(=O)n(-c2ccccc2)n1C	i	0.92	x
Cc1ccc(CN2[C@@H](CC(C)C)COCCS2(=O)=O)cc1	i	0.86	x
CCN(CC)CCOCCOC(=O)C1(c2ccccc2)CCCC1	i	0.97	x
C=CCOC(=O)C1=C[C@H](c2csc3ccccc23)C[C@H](OCc2ccc(CO)cc2)O1	i	1.11	x
C[C@H]1C=C(C(=O)O)O[C@@H](OCc2ccc(CO)cc2)C1	i	0.86	x
C#C[C@]1(O)CC[C@H]2[C@@H]3CCC4=Cc5oncc5C[C@]4(C)[C@H]3CC[C@@]21C	i	0.79	x
CCO[C@H]1OC(C(=O)NCc2ccccc2)=C[C@@H](C(C)(C)C)[C@@H]1CCCO	i	0.83	x
CCOC(=O)C1=C(C)N(CCCC(=O)O)C(=O)NC1c1ccc(C(F)(F)F)cc1 (stereo unspecified)	i	0.78	x
CCC(C)N(C(=O)COC(=O)c1cn(CC)c2nc(C)ccc2c1=O)C1CCS(=O)(=O)C1 (stereo unspecified)	i	0.99	x
C/C=C1\COC(C(=O)NCc2ccncc2)(C(F)(F)F)C=C1C=C1CCCCC1 (stereo unspecified)	i	0.79	x
COC(=O)C1=C(CCc2ccccc2)NC(=O)NC1c1ccc(Cl)cc1 (stereo unspecified)	i	0.79	x
COC(=O)C1N[C@@H]([C@@H](NC(=O)COc2ccccc2)C(=O)NC2CC2)SC1(C)C (stereo partly specified)	i	0.92	x
CCCC(C(=O)OCCN(CC)CC)(c1ccccc1)c1ccccc1	i	0.65	x
COC(=O)C[C@H]1c2cc(F)ccc2S(=O)(=O)N1Cc1ccccc1OC	i	0.99	x
COC(=O)[C@H]1[C@H](CCc2ccccc2)NC(=O)N(Cc2ccccc2)[C@@H]1C	i	0.98	x
CC(C)(C)N1[C@@H](CC(=O)O)c2cc(C(F)(F)F)ccc2S1(=O)=O	i	0.9	x
CC(=O)C[C@H]1c2cc(C(F)(F)F)ccc2S(=O)(=O)N1C1CCCC1	i	0.73	x
COc1ccc(CNC(=O)C2(CC3CC(c4ccccc4)=NO3)CCNCC2)cc1 (stereo unspecified)	i	0.61	x
CC1(C)c2[nH]c3ccccc3c2C[C@H]2C(=O)N(Cc3ccccc3)C(=O)N21	i	0.96	x
CCOC(=O)C1=C(C)N(CCCC(=O)O)C(=O)NC1c1ccccc1OC(=O)c1cccs1 (stereo unspecified)	i	0.71	x
COC(=O)CCCC1=CC2=CC(=O)C(C)(O)C(=O)C2=CO1 (stereo unspecified)	i	0.72	x
CCOC(=O)C[C@H]1c2cc(F)ccc2S(=O)(=O)N1C(C)(C)C	i	0.79	x
Cc1nc2ccc(CN(C)c3ccc(C(=O)N[C@@H](CCC(=O)O)C(=O)O)s3)cc2c(=O)[nH]1	i	0.62	x
CC(C)=CCc1c([C@@H]2CCc3ccc(O)cc3O2)cc2c(c1O)OC(C)(C)C=C2	i	0.87	x
NC1(C(=O)O)CC1	i	0.82	x
CCCCCCCCN1[C@@H](CC(=O)OCC)c2cc(C(F)(F)F)ccc2S1(=O)=O	i	1.03	x
C=C1CC2C(=O)N(Cc3cc(OC)ccc3OC)C(C(=O)OCC)(C(=O)OCC)C1N2C(=O)OC(C)(C)C (stereo unspecified)	i	1.16	x
OCCCn1c(C2CCCN2c2nc(-c3ccc(Cl)cc3)cs2)nc2cc(Cl)c(Cl)cc21 (stereo unspecified)	i	1.03	x
COc1ccc2nc(C3CCCCC3)c3c(c2c1)CCC3	i	0.82	x
CCCNC(=O)c1c(CSc2ccc(Cl)cc2)noc1C(=O)NCc1ccccc1	i	0.93	x
CCCCC1CCCOC(C(=O)NCCNCCO)(C(F)(F)F)C1 (stereo unspecified)	i	0.86	x
Cc1ccc(C2=NOC(C)(c3sc(-c4ccc(Cl)cc4)nc3C)C2)cc1 (stereo unspecified)	i	0.89	x
O=C(CSc1nnc(-c2cccs2)n1-c1ccccc1)c1ccc2c(c1)OCCO2	i	1.2	x
CCCC[C@@H]1C[C@H]1[C@@H](NC(=O)c1ccco1)c1ccccc1C(F)(F)F	i	0.8	x
COc1ccc(CNC(=O)c2ccc(N3CCC4(CC3)CC(c3ccc(Cl)cc3)=NO4)c(N)c2)cc1	i	0.81	x
COc1cc(C(=O)N2CCCN(c3nc4cc(C)ccc4cc3C#N)CC2)cc(OC)c1OC	i	0.85	x

The listing continues.
SMILES	HSV augment	HSV augment primary fold	RGS16-Gao
COC(=O)C(C#N)c1nc2ccccc2nc1N1CCN(Cc2ccc3c(c2)OCO3)CC1 (stereo unspecified)	i	1.18	x
CC1(C)CC[C@@]23CC[C@]4(C)[C@@](OC2=O)(C3C1)[C@H]1O[C@H]1C1[C@@]2(C)CC[C@H](O)C(C)(C)C2CC[C@]14C (stereo partly specified)	i	0.82	x
COc1cccc(C2=CC(=O)CC(C)(C)C2)n1	i	0.84	x
CCCCC(=O)O	i	0.77	x
COCCNc1nc(C)cc(-c2cc(C(=O)Nc3ccccc3)on2)n1	i	0.82	x
CC1(OC(=O)c2cnc3ccccc3n2)C(=O)C=C2C=C(c3ccc(C#N)cc3)OC=C2C1=O (stereo unspecified)	i	0.86	x
CCC1(CC)C(=O)C2=C3C1[C@H](C(=O)OC)C=C(C(=O)OC)C[C@H]3[C@H]1C(=O)N(CC(=O)OC)C(=O)[C@H]1[C@H]2C (stereo partly specified)	i	0.53	x
C[C@H](NC(=O)CCC1CCC(=O)N1)c1ccccc1 (stereo partly specified)	i	0.79	x
COC(C[C@H]1O[C@@H]1[C@H](O)[C@H](C)OCc1ccccc1)OC	i	0.79	x
O=C(NC1CC1)C1Nc2ccc(OC(F)(F)F)cc2C2C=CCC12 (stereo unspecified)	i	0.48	x
O=C(O)C1=C[C@H](C2CC2)C[C@H](OCc2ccc(CO)cc2)O1	i	0.84	x
CC1(C)Cc2c(sc(NC(=O)c3ccco3)c2C#N)C(C)(C)N1	i	0.96	x
Nc1ccccc1C#Cc1ccc2[nH]ccc2c1	i	0.86	x
COC(=O)/C=C/c1ccc2c(c1)S(=O)(=O)N(Cc1ccc(OC)cc1)[C@H]2CC(=O)OC	i	0.85	x
COc1ccc(C#Cc2c(-c3ccc(OC)cc3)oc3ccc(-c4ccc5c(c4)OCO5)cc23)cc1	i	0.99	x
COc1ccc(CCNC(=O)CSc2nnc(-c3ccccc3)o2)cc1OC	i	0.93	x
CCCCCCCCCCCCN1[C@@H](CC(C)=O)c2cc(F)ccc2S1(=O)=O	i	0.72	x
CC(C)CNC(=O)C1Nc2ccc(OC(F)(F)F)cc2C2C=CCC12 (stereo unspecified)	i	1.06	x
NC(=O)c1ccccc1N	i	0.77	x
C#C[C@]1(O)CC[C@H]2[C@@H]3CCC4=CC(=O)CC[C@@H]4[C@H]3CC[C@@]21C	i	0.75	x
COc1cc(C(=O)O)c2c(c1C)OC(=O)c1c(C)cc(O)c(C=O)c1O2	i	0.98	x
COc1ccc(-c2nnc3sc(CN4C(=O)c5ccccc5C4=O)nn23)cc1	i	0.997	x
CCOC(=O)c1ccccc1NC(=O)c1c(N)n(C)c(=O)[nH]c1=O	i	0.6	x
COc1ccc(-c2oc3ccc(-c4cc(OC)c(OC)c(OC)c4)cc3c2-c2ccc(OC)cc2)cc1	i	0.95	x
COCCN1C(=O)N[C@@H](CCc2ccccc2)[C@@H](C(=O)OC)[C@H]1C	i	0.85	x
CCOC(=O)C[C@H]1c2ccc(C(F)(F)F)cc2S(=O)(=O)N1c1cccc(OC)c1	i	0.95	x
CCCC(CCC)C(=O)O	i	0.83	x
COC(=O)CCCC1=CC2=CC(=O)C(C)(OC(=O)c3cccs3)C(=O)C2=CN1c1ccccc1 (stereo unspecified)	i	0.97	x
CCOC(=O)c1oc2cc(O)cc(O)c2c(=O)c1OCc1ccccc1	i	0.92	x
O=C(O)c1cc(-c2ccccc2)nn1CC1CC(c2cccnc2)=NO1 (stereo unspecified)	i	0.82	x
COC(=O)C1N[C@@H]([C@@H](NC(=O)COc2ccccc2)C(=O)NCc2ccsc2)SC1(C)C (stereo partly specified)	i	0.96	x
COC(=O)N1[C@H](C)C=C[C@]1(Cc1ccccc1)C(=O)NCCCNc1ncc(C(F)(F)F)cc1Cl	i	0.84	x
CCNC(=O)[C@@H]1CCCN1C(=O)[C@H](CCCN=C(N)N)NC(=O)[C@H](CC(C)C)NC(=O)[C@@H](CC(C)C)NC(=O)[C@H](Cc1ccc(O)cc1)NC(=O)[C@H](CO)NC(=O)[C@H](Cc1c[nH]c2ccccc12)NC(=O)[C@H](Cc1cnc[nH]1)NC(=O)[C@@H]1CCC(=O)N1	i	0.92	x
COC(=O)c1c(C)cc(O)c(C)c1O	i	0.79	x
COC(=O)C1=C(C)N2C(=O)CSC2=NC1c1ccc2c(c1)OCO2 (stereo unspecified)	i	0.93	x
[C-]#[N+][C@H](O[C@@H]1O[C@H](CO)[C@@H](O)[C@H](O)[C@H]1O)c1ccccc1	i	0.6	x
O=C(NCCNCCO)C1(C(F)(F)F)C/C(=C\Cc2ccccc2)CCCO1 (stereo unspecified)	i	0.71	x
Cc1cccc(N(Cc2cc3ccccc3[nH]c2=O)C(=O)c2ccco2)c1C	i	0.97	x
CCCc1nnc(NC(=O)c2c(O)c3cccc4c3n(c2=O)CC4)s1	i	0.91	x
CC1(C)CC(NC(=O)C2CCCCC2C(=O)O)CC(C)(C)N1 (stereo unspecified)	i	0.78	x
Cn1c(N)c(C(=O)CSc2nc3ccccc3n2-c2ccccc2)c(=O)n(C)c1=O	i	1.04	x
CCO[C@@H]1OC(C(=O)Nc2ccccc2)=C[C@H](C)[C@H]1CCCO	i	0.58	x
COc1ccc2[nH]c(C)c(CN3CCCCC3)c(=O)c2c1	i	0.56	x

Seven compounds out of the list above, arranged by the value under HSV augment primary fold, high to low.
SMILES	HSV augment	HSV augment primary fold	RGS16-Gao
COC(=O)C(C#N)c1nc2ccccc2nc1N1CCN(Cc2ccc3c(c2)OCO3)CC1 (stereo unspecified)	i	1.18	x
CCCCCCCCN1[C@@H](CC(=O)OCC)c2cc(C(F)(F)F)ccc2S1(=O)=O	i	1.03	x
COC(=O)[C@H]1[C@H](CCc2ccccc2)NC(=O)N(Cc2ccccc2)[C@@H]1C	i	0.98	x
COC(=O)C1=C(C)N2C(=O)CSC2=NC1c1ccc2c(c1)OCO2 (stereo unspecified)	i	0.93	x
C/C=C1\COC(C(=O)NCc2ccncc2)(C(F)(F)F)C=C1C=C1CCCCC1 (stereo unspecified)	i	0.79	x
CC(=O)C[C@H]1c2cc(C(F)(F)F)ccc2S(=O)(=O)N1C1CCCC1	i	0.73	x
COc1ccc2[nH]c(C)c(CN3CCCCC3)c(=O)c2c1	i	0.56	x

High-throughput results: PubChem, several laboratories

An excerpt; rates above refer to the full screens.
